High-throughput results: PubChem, National Center for Advancing Translational Sciences (NCATS)
StopGo reporter: High Throughput Screening for Foot and Mouth Disease Virus Antivirals. human cells with a luciferase reporter of 2A StopGo recoding; control for the full effect not named in the record. Potency, µM (titrated, usually from 57.9 µM), for inactives: top-dose signal change, negative = less light. 410,000 compounds, 1.2% hits. AID 1159524, 2015; active = well fitted falling curve with a large enough effect; inconclusive = small, poorly fitted or top-dose-only effect; inactive = no such curve, though single readings can be large or run the other way; tested in HEK293T cells; further: on the % scale 0 is the no-effect control and ±100 the full control effect; nearly all actives have a fitted effect of over 45% in size; luciferase light after 4 h
RE007 growth inh: qHTS Assay for Inhibitors of the HIV-1 protein Vpr; Potency, µM (top dose mostly 92.2 µM), for inactives: at the top dose activity change, negative = less growth; AID 651644, 2012; S. pombe RE007 Vpr strain, BacTiter-Glo ATP luminescence, 24 h; control for the full effect not named in the record; 360,000 compounds, 0.21% hits; active = well fitted falling curve with a large enough effect; inconclusive = small, poorly fitted or top-dose-only effect; inactive = no such curve, though single readings can be large or run the other way;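 further: on the % scale 0 is the no-effect control and ±100 the full control effect; nearly all actives have a fitted effect of over 50% in size; the assay follows cell death caused by Vpr and the record does not say whether a fall means rescue or toxicity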
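Fission yeast strain RE007, carrying one chromosomally integrated HIV-1 vpr copy, was seeded at OD 0.01 in PMG+AL medium with 23 nL pinned compound. After 24 h at 30 °C and 99% humidity, viability was read by BacTiter-Glo luminescence.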
Cruzain noTriton: qHTS Assay for Promiscuous and Specific Inhibitors of Cruzain (without detergent). Cruzipain (Trypanosoma cruzi), P25779. purified cruzain, Z-FR-AMC fluorescence, no detergent. Potency, µM, for inactives: max response, negative = inhibition, hits mostly inhibitors. 200,000 compounds, 2.3% hits. AID 1476, 2009; active means well fitted curve in the direction sought with a large enough effect; inconclusive means small, poorly fitted or top-dose-only effect, or another doubt; inactive means no such curve, though single readings can be large; an effect the other way counts as inactive or inconclusive;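 further: plate controls were enzyme without inhibitor for no effect and buffer without enzyme for full effect; nearly all actives have a fitted effect of over 40% in size; top concentration of the series not given in the record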
Target sequence (P25779 123-467 limits assumed): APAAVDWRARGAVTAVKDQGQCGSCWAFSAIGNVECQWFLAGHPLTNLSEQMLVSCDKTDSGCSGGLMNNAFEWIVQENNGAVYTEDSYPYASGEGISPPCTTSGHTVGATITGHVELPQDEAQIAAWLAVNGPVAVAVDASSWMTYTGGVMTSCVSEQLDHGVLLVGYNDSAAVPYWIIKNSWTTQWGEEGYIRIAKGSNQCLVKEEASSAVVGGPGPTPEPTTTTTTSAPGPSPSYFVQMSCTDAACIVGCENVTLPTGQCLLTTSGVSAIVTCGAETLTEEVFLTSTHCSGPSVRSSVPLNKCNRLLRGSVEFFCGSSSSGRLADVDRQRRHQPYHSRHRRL
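Purified cruzain at 1.5 nM, pre-incubated 15 min with compound at room temperature in 100 mM sodium acetate pH 5.5, 5 mM DTT, 0.00005% Triton X-100. Reaction started with 2 uM Z-FR-AMC; AMC fluorescence increase over 60 s gives rate.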
Cruzain inh Det: qHTS Assay for Promiscuous and Specific Inhibitors of Cruzain (with detergent); Cruzipain (Trypanosoma cruzi), P25779; 200,000 compounds, 0.43% hits; purified cruzain, Z-FR-AMC fluorescence, 0.01% Triton; AID 1478, 2009; Potency, µM, without a hit: max response, negative = inhibition, usual class: inhibitors; active means well fitted curve in the direction sought with a large enough effect; inconclusive means small, poorly fitted or top-dose-only effect, or another doubt; inactive means no such curve, though single readings can be large; an effect the other way counts as inactive or inconclusive;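 further: plate controls were neutral wells for no effect and buffer without enzyme for full effect; nearly all actives have a fitted effect of over 40% in size; top concentration of the series not given in the record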
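Read-out: AMC fluorescence (360 nm excitation, 450 nm emission), four reads over 2 min, first-to-third difference used. Conditions: cruzain 1.5 nM, Z-FR-AMC 2 uM, pH 5.5 acetate, 5 mM DTT, 0.01% Triton X-100.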
Marburg entry inh: qHTS for inhibitors of binding or entry into cells for Marburg Virus; Potency, µM (top dose mostly 37.8 µM), for inactives: at the top dose activity change, negative = inhibition, actives largely listed as inhibitors; Marburg virus pseudotyped entry inhibition, cell reporter; control for the full effect not named in the record; about a third of the inactives were read at about 46 µM; 300,000 compounds, 1.8% hits; active = well fitted inhibition curve with a large enough effect; inconclusive = small, poorly fitted or top-dose-only effect, or effect the other way; inactive = flat fitted curve, though single readings scatter; tested in HEK293 cells; about a fifth of its hits are not listed in these tables; further: on the % scale 0 is the no-effect control and ±100 the full control effect; luciferase read-out
NS1 inh: qHTS Assay for Inhibitors of Influenza NS1 Protein Function. Potency, µM (doses to about 46.1 µM), inactives show top-dose activity, positive = more growth. 270,000 compounds, 0.4% hits. AID 2326, 2010. S. cerevisiae slowed by influenza A NS1, growth recovery by OD600; further: actives are rising curves; nearly all actives have a fitted effect of over 50% in size
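S. cerevisiae expressing influenza A NS1, grown in glucose, washed, then diluted 1:100 into pH 6.0 -URA galactose medium with 23 nl compound. Growth recovery read as OD600; NS1-free strain serves as control.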
LASV entry inh: qHTS for Inhibitors of binding or entry into cells for Lassa Virus. Lassa virus pseudotype entry inhibition, cell reporter; control for the full effect not named in the record. Potency, µM (series often up to 37.9 µM), inactives show at the top dose activity change, negative = inhibition, usual class: inhibitors. 300,000 compounds, 1.2% hits; active means well fitted inhibition curve with a large enough effect; inconclusive means small, poorly fitted or top-dose-only effect, or effect the other way; inactive means flat fitted curve, though single readings scatter; tested in HEK293 cells; further: on the % scale 0 is the no-effect control and ±100 the full control effect; nearly all actives have a fitted effect of over 50% in size; luciferase read-out
SARS PLpro yeast: qHTS of Yeast-based Assay for SARS-CoV PLP; Potency, µM (top dose mostly 32.9 µM), inactives show top-dose activity, positive = growth rescue; AID 485353, 2010; S. cerevisiae expressing SARS-CoV PLpro, growth rescue; control for the full effect not named in the record; 330,000 compounds, 0.19% hits; further: 0% is about no effect; nearly all actives have a fitted effect of over 55% in size; growth read by luminescence after 48 h
Starred values were filed as active, the others as inactive; ? = inconclusive; . = not tested or not shown; & = joins results of further samples; [ ] = dose if it differs, or a comment. Unless noted, the call rests on the fitted dose curve; in most records, active means well fitted rising curve with a large enough effect; inconclusive means small, poorly fitted or top-dose-only effect; inactive means no such curve, though single readings can be large or run the other way. Potency means the concentration at half of the fitted maximal effect.

Order of results: StopGo reporter	Cruzain noTriton	Marburg entry inh	NS1 inh	LASV entry inh	RE007 growth inh	Cruzain inh Det	SARS PLpro yeast
1. O=C(NC1CCOCC1)C1CCC(=O)N(CCc2cccc(F)c2)C1 (stereo unspecified)
    2%	.	-7%	7%	14%	25%	.	7%
2. CC(=O)N1CCc2c(sc3c2c(=O)n(-c2ccc(F)cc2)c(=O)n3Cc2cc(C)ccc2C)C1
    -11%	-2%	13%[46.1 µM]	.	.	.	0.2%	.
3. Cc1ccc(OCC(O)CN2CCc3ccccc3C2)c(C)c1 (stereo unspecified)
    -3%	.	.	-2%	.	2%	.	1%
4. COc1ccccc1Oc1ccc(N/C=C/C(=O)c2ccc(C)o2)cc1
    0%	.	?	.	-23%[46.1 µM]	-2%	.	0%
5. CC(C)C(C)NC(=O)COc1ccc(S(=O)(=O)N2CCOCC2)cc1[N+](=O)[O-] (stereo unspecified)
    -21%	?	-10%	-2%	-1%	?	1.0%	2%
6. CNC(=O)c1csc(-c2ccc(C)cc2)n1
    50%[activator]	-3%	27%	-9%	-1%	-21%	-4.3%	-10%
7. O=C(c1ccc2c(c1)N(Cc1cccc(F)c1)C(=O)c1ccccc1S2)N1CCC2(CC1)OCCO2
    -2%	30%	.	.	-12%[46.1 µM]	.	-1.7%	.
8. COc1ccccc1C(=O)Nc1ccc2c(c1)nc1n2CCN(Cc2ccccc2)C1
    ?	.	?	.	?	-10%	.	0%
9. CCOc1ccc(-n2nc3cc(C)c(NC(=O)CC)cc3n2)cc1
    -5%	-1%	19%[46.1 µM]	.	-13%[46.1 µM]	.	-2.4%	.
10. COc1ccc(NC(=O)N[C@@H](CCSC)C(=O)O)cc1Cl
    18%	-7%	-6%	0%	7%	-22%	4.5%	7%
11. Cc1csc(N(C)C(=O)CSc2nnc(COc3ccccc3C)o2)n1
    -24%	?	-1%	4%	-1%	-12%	-4.0%	-2%
12. O=C1NC(=S)S/C1=C/c1ccc(Oc2cnccn2)cc1
    11%	.	?	.	1%	10%	.	0%
13. CCN1CCN(C(=O)NCc2ccccc2)CC1
    6%	.	-1%	1%	-1%	16%	.	-3%
14. CCCNc1nc(OC(C(F)(F)F)C(F)(F)F)nc(OC(C(F)(F)F)C(F)(F)F)n1
    0%	11%	18%	8%	-26%	-9%	-3.0%	4%
15. Cc1ccc2c(ccc[n+]2CC(=O)c2ccccc2)c1
    -18%	8%	-19%	-9%	1%	-15%	-1.7%	?
16. c1ccc2c(c1)OCC(c1nn3c(Cn4nnc5ccccc54)nnc3s1)O2 (stereo unspecified)
    -10%	0%	-4%	-51%	-7%	-7%	-6.1%	1%
17. CNC(=O)CSc1nnc(-c2ccco2)n1-c1ccccc1OC
    1%	2%	2%	0%	-2%	-12%	7.5%	9%
18. COc1cc(C(=O)Nc2nc(-c3ccc(C)cc3)cs2)ccc1OCC(=O)N1CCOCC1
    22µM*	?	-2%	23%	7%	-8%	-8.0%	1%
19. Cc1cc(C(=O)CSc2nnnn2-c2ccc(O)cc2)c(C)n1Cc1ccc2c(c1)OCO2
    ?	16µM*	13%&13%	-3%	?	-9%	-0.5%	3%
20. CCn1cnc2cc(NC(=O)COc3ccc(C)cc3)ccc21
    2%	.	-2%[46.1 µM]	.	-14%	-10%	.	.
21. Cc1ccn2c(Nc3ccc4c(c3)OCCO4)c(-c3ccc(N(C)C)cc3)nc2c1
    42%[activator]	0%	?	.	6%[46.1 µM]	.	-4.5%	.
22. NC(=O)C1CCN(C(=O)Cn2cccc2C(=O)c2ccccc2)CC1
    21%	-9%	10%	5%	4%	-8%	0.2%	3%
23. O=C(C1CCCN(S(=O)(=O)c2ccccc2[N+](=O)[O-])C1)N1CCCC1 (stereo unspecified)
    6%	8%	-9%	-6%	-6%	16%	2.4%	12%
24. CC1=CC(C)(C)N(C(=O)CN2C(=O)CCC2=O)c2ccc(C)cc21
    6%	.	-2%[46.1 µM]	5%	8%	-10%	.	0%
25. CN(CC(=O)Nc1ccc2c(c1)OCO2)S(=O)(=O)c1cccs1
    39%[activator]	.	?	-2%	-6%	-21%	.	-1%
26. COc1ccc(-c2[nH]c(-c3ccc(F)cc3)nc2SCC(=O)NC2CCCC2)cc1
    -23%	2%	-10%	14%	-6%	-6%	-7.0%	-2%
27. O=C(O)CC1S/C(=N/N=C/c2ccc(-c3ccc(Cl)cc3[N+](=O)[O-])o2)NC1=O (stereo unspecified)
    -28%	?	-11%	7%	0%	2%	?	10%
28. COc1ccc(C(=O)COC(=O)CCc2ccccc2)cc1
    -5%	.	7%[46.1 µM]	-2%	1%	-10%	.	0%
29. COc1cc(OC)c(OC)cc1/C=N/NC(=O)CC1C(=O)NN=C1C (stereo unspecified)
    2%	?	?	-2%	0%	-9%	-9.6%	-2%
30. COC1CCN(C(=O)c2ccc3oc(C(C)C)nc3c2)CC1
    10%	.	15%[46.1 µM]	-1%	6%[46.1 µM]	-16%	.	1%
31. O=C1CC(N2CCC(c3nc4ccccc4[nH]3)CC2)C(=O)N1Cc1ccccc1 (stereo unspecified)
    .	2%	4%	-35%	18%	?	0.6%	.
32. O=C(C1=C[C@H](C2CC2)C[C@H](OCc2ccc(CO)cc2)O1)N1CCOCC1
    0%	.	.	0%	.	5%	.	0%
33. CC(=O)N1CCN=C1SCc1c(F)cccc1Cl
    0%	-4%	.	-8%	.	-3%	6.2%	-8%
34. Cc1ccc(NC(=O)N2CCC(NC(=O)C(C)(C)C)CC2)cc1
    -17%	-4%	-12%	18%	7%	19%	-1.2%	12%
35. O=C(CN1CC(=O)Nc2ccccc21)NCCc1ccc(Cl)cc1Cl
    ?	.	7%[46.1 µM]	.	-17%	8%	.	-6%
36. Cc1nnc(NC(=O)C2CCCN(S(=O)(=O)Cc3ccccc3)C2)s1 (stereo unspecified)
    5%	2%	-15%[46.1 µM]	-4%	0%	-12%	0.9%	-11%
37. O=C(Nc1nc(-c2ccc(Cl)cc2Cl)cs1)C1CCCO1 (stereo unspecified)
    -36%	6%	?	-6%	?	16µM*	-6.9%	-47%
38. COc1ccc2c(C)c(CCC(=O)NCCCN3CCCC3=O)c(=O)oc2c1C
    -23%	.	.	15%	.	5%	.	-6%
39. Cc1ccc(S(=O)(=O)/N=S(/C)c2ccccc2)cc1 (stereo unspecified)
    -9%	3%	?	14%	-1%	25%	-2.3%	4%
40. CCOC(=O)c1cccc(NC(=O)Cn2c(=O)nc(-c3ccccc3F)c3cc(Cl)ccc32)c1
    3%	0%	.	.	-3%[46.1 µM]	.	0.2%	.
41. O=C(NCCN1CCc2ccccc2C1)C1CC(=O)N(C2CCCC2)C1 (stereo unspecified)
    .	-4%	?	?	4%	16%	4.4%	11%
42. COc1ccc(/C=C/C(=O)c2ccccc2)c(OC)c1
    11%	.	?	.	?	-2%	.	-11%
43. Cc1cc(=O)n2nc(N3CCCC3C(=O)Nc3ccccc3C)sc2n1 (stereo unspecified)
    -3%	.	.	1%	.	-2%	.	-1%
44. Cc1cccc(CCNCc2cc3cccc(C)c3[nH]c2=O)c1
    -20%	.	?	3%	11%[46.1 µM]	-21%	.	?
45. COc1ccc(S(=O)(=O)NCC2CCCN(Cc3ccccc3Cl)C2)cc1 (stereo unspecified)
    15%	.	.	7%	.	2%	.	-6%
46. O=C(N/N=C/c1ccc(-n2ccnc2)cc1)c1cccs1
    8%	.	?	-2%	-23%[46.1 µM]	-10%	.	?
47. O=C(CC1C(=O)NCCN1Cc1ccccc1)NCCN1CCCCC1=O (stereo unspecified)
    -16%	.	.	-10%	.	-6%	.	1%
48. CSc1sc(C(=O)N(C)C)c2c1S(=O)(=O)N(C)c1ccccc1-2
    -4%	.	-6%	-2%	-4%	1%	.	1%
49. CCN1C(=O)c2ccc(-c3nc4ccccc4c(=O)o3)cc2C1=O
    22%	.	.	2%	.	11%	.	1%
50. Cc1ccc(S(=O)(=O)N2CCCCC2C(=O)N2CCN(c3ccccc3F)CC2)cc1 (stereo unspecified)
    -19%	4%	?	0%	-24%	-8%	0.7%	1%
51. CCOC(=O)N1CCC(NC(=O)c2cc(C(=O)Nc3ccc(F)cc3F)ccc2CO)CC1
    ?	2%	.	?	.	0%	5.7%	-4%
52. COc1ccc(OC)c(NC(=O)CCCOc2cc(=O)n(C)c3ccccc23)c1
    -10%	?	-1%[46.1 µM]	.	12%[46.1 µM]	.	2.2%	.
53. CC(=O)c1cc(C#N)c(Oc2cc(C)cc(C)c2)nc1C
    -18%	-3%	18%	-1%	-5%	3%	1.3%	0%
54. COc1ccc(-c2nc3ccccc3s2)cc1NC(=O)c1ccccc1F
    0%	7%	-26%[46.1 µM]	.	12%[46.1 µM]	.	-0.1%	.
